Cruzain noTriton: cruzain (T. cruzi) inhibition without detergent | P25779 | purified cruzain, Z-FR-AMC fluorescence, no detergent | Potency, µM, without a hit: max response, negative = inhibition, actives largely listed as inhibitors | 200,000 tested, 2.3% active | AID 1476;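 further: plate controls were enzyme without inhibitor for no effect and buffer without enzyme for full effect; nearly all actives have a fitted effect of over 40% in size; top concentration of the series not given in the record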
Target sequence (P25779 123-467 limits assumed): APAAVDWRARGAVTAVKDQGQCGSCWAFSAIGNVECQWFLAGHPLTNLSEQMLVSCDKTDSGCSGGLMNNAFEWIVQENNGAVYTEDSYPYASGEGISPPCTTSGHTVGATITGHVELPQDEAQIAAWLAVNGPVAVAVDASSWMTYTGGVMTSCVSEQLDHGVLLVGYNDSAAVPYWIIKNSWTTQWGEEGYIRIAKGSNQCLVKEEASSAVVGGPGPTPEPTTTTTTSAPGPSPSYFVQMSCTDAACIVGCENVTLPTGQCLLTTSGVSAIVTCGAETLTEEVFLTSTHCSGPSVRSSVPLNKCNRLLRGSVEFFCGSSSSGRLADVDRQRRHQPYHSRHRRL
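Detergent-free condition (0.00005% Triton X-100) in acetate buffer pH 5.5 with DTT. 1.5 nM enzyme and compound were pre-mixed 15 min, then 2 uM Z-FR-AMC substrate added; reaction progress from fluorescence change between first and third reads (60 s).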
LASV entry inh: inhibitors of Lassa virus binding or cell entry; AID 540256; Lassa virus pseudotype entry inhibition, cell reporter; control for the full effect not named in the record; 300,000 tested, 1.2% active; Potency, µM (doses to about 37.9 µM), for inactives: at the top dose activity change, negative = inhibition, hits mostly inhibitors; active means well fitted inhibition curve with a large enough effect; inconclusive means small, poorly fitted or top-dose-only effect, or effect the other way; inactive means flat fitted curve, though single readings scatter; tested in HEK293 cells; further: on the % scale 0 is the no-effect control and ±100 the full control effect; nearly all actives have a fitted effect of over 50% in size; luciferase read-out
RE007 growth inh: less growth of the S. pombe RE007 Vpr strain. S. pombe RE007 Vpr strain, BacTiter-Glo ATP luminescence, 24 h; control for the full effect not named in the record. Potency, µM (titrated, usually from 92.2 µM), for the others: at the top dose activity change, negative = less growth. 360,000 tested, 0.21% active. AID 651644; active = well fitted falling curve with a large enough effect; inconclusive = small, poorly fitted or top-dose-only effect; inactive = no such curve, though single readings can be large or run the other way;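 further: on the % scale 0 is the no-effect control and ±100 the full control effect; nearly all actives have a fitted effect of over 50% in size; the assay follows cell death caused by Vpr and the record does not say whether a fall means rescue or toxicity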
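Fission yeast RE007 carrying one integrated HIV-1 vpr copy, seeded at OD 0.01 in PMG+AL medium with 23 nL pinned compound. Grown 24 h at 30 degrees; viability read by BacTiter-Glo luminescence after 5 min.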
Marburg entry inh: Marburg virus entry inhibition. AID 540276. Marburg virus pseudotyped entry inhibition, cell reporter; control for the full effect not named in the record; about a third of the inactives were read at about 46 µM. 300,000 tested, 1.8% active. Potency, µM (series often up to 37.8 µM), for inactives: at the highest dose activity change, negative = inhibition, hits mostly inhibitors; active = well fitted inhibition curve with a large enough effect; inconclusive = small, poorly fitted or top-dose-only effect, or effect the other way; inactive = flat fitted curve, though single readings scatter; tested in HEK293 cells; about a fifth of its hits are not listed in these tables; further: on the % scale 0 is the no-effect control and ±100 the full control effect; luciferase read-out
SARS PLP yeast: SARS-CoV PLP inhibition in yeast; S. cerevisiae expressing SARS-CoV PLpro, growth rescue; control for the full effect not named in the record; Potency, µM (titrated, usually from 32.9 µM), for the others: at the highest dose activity, positive = growth rescue; 330,000 tested, 0.19% active; active means well fitted rising curve with a large enough effect; inconclusive means small, poorly fitted or top-dose-only effect; inactive means no such curve, though single readings can be large or run the other way; further: 0% is about no effect; nearly all actives have a fitted effect of over 55% in size; growth read by luminescence after 48 h
NS1 inh: inhibitors of influenza NS1 protein function | Potency, µM (top dose mostly 46.1 µM), inactives show at the top dose activity, positive = more growth | AID 2326 | 270,000 tested, 0.4% active | S. cerevisiae slowed by influenza A NS1, growth recovery by OD600; active means well fitted rising curve with a large enough effect; inconclusive means small, poorly fitted or top-dose-only effect; inactive means no such curve, though single readings can be large or run the other way; further: nearly all actives have a fitted effect of over 50% in size
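Compounds were scored for reversing the slow growth caused by influenza A NS1 in S. cerevisiae, measured by optical density at 600 nm. Assay medium contained 2% galactose at pH 6.0; NS1-free yeast of the same strain were the positive control.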
2A StopGo: FMDV 2A StopGo reporter, luciferase signal; Potency, µM (doses to about 57.9 µM), without a hit: at the highest dose signal change, negative = less light; 410,000 tested, 1.2% active; human cells with a luciferase reporter of 2A StopGo recoding; control for the full effect not named in the record; active = well fitted falling curve with a large enough effect; inconclusive = small, poorly fitted or top-dose-only effect; inactive = no such curve, though single readings can be large or run the other way; tested in HEK293T cells; further: on the % scale 0 is the no-effect control and ±100 the full control effect; nearly all actives have a fitted effect of over 45% in size; luciferase light after 4 h
Cruzain inh Det: cruzain (T. cruzi) inhibition with detergent. purified cruzain, Z-FR-AMC fluorescence, 0.01% Triton. Potency, µM, inactives show max response, negative = inhibition, actives largely listed as inhibitors. 200,000 tested, 0.43% active;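 further: plate controls were neutral wells for no effect and buffer without enzyme for full effect; nearly all actives have a fitted effect of over 40% in size; top concentration of the series not given in the record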
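15 min RT preincubation of 1.5 nM cruzain with compound, then 2 uM Z-FR-AMC added; kinetic AMC fluorescence, 60 s delta. Triton X-100 0.01%, pH 5.5.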
Starred values were filed as active, the others as inactive; ? = inconclusive; · = not tested or not shown; [ ] = remark or other dose. Unless noted, the call rests on the fitted dose curve; in most records, active means well fitted curve in the direction sought with a large enough effect; inconclusive means small, poorly fitted or top-dose-only effect, or another doubt; inactive means no such curve, though single readings can be large; an effect the other way counts as inactive or inconclusive. Potency means the concentration at half of the fitted maximal effect.

SMILES | Cruzain noTriton | LASV entry inh | RE007 growth inh | Marburg entry inh | SARS PLP yeast | NS1 inh | 2A StopGo | Cruzain inh Det
C=CCOC(=O)C1=C(C)NC(SCC(=O)OCC)=C(C#N)C1c1ccc(O)c(OC)c1 (stereo not given) | 18.5% | · | 6.8% | 23.4% | 3.3% | -1.7% | -6.6% | -7.6%
O=C(Nc1cccc2nsnc12)c1ccc2c(c1)OCCO2 | -3.5% | ? | -5.1% | -0.2% | -4.2% | -13.6% | · | -7.0%
CCOC(=O)/C=C/C(=O)OCC(=O)Nc1cccc(Br)c1 | · | -4.4% | -29.9% | -6.2%[46.1 µM] | -29.8% | · | 0.5% | ·
O=C(CN1C(=O)c2ccccc2S1(=O)=O)c1ccc(Cl)cc1Cl | · | 0.562µM* | -15.6% | 0.282µM* | · | · | 2µM* | ·
COc1ccc(C(O)P(=O)(O)CCc2ccccc2)cc1 (stereo not given) | 1.7% | 12.2% | -8.2% | 7.5% | 1.1% | 1.8% | -11.5% | 5.3%
C1CCN2C[C@@H]3C[C@@H](CN4CCCC[C@@H]34)[C@H]2C1 | 9.7% | · | -20.1% | · | · | · | -13.8% | 2.8%
Cc1cccc2sc(N(Cc3cccnc3)C(=O)CCOc3ccccc3)nc12 | 7.8% | -7.8%[46.1 µM] | · | · | · | · | -16.3% | -4.0%
CC(C)(C)NC(=O)Cn1cnc2cc([N+](=O)[O-])ccc2c1=O | · | 14.2% | 7.4% | -15.5%[46.1 µM] | 0.2% | · | -18.8% | ·
CC(=O)Nc1ccc(NC(=O)C(C)OC(=O)CC2CCCC2)cc1 (stereo not given) | · | 23.8% | -8.3% | 0.6% | 10.0% | · | -9.0% | ·
Cc1ccc(S(=O)(=O)N2CCC3(CC2)OCCO3)s1 | · | 9.0%[46.1 µM] | 10.1% | 2.0%[46.1 µM] | ? | 0.2% | -7.0% | ·
Cc1cc(NC(=S)N(CCN2CCOCC2)Cc2ccccc2F)ccc1Cl | · | -7.8% | -23.1% | -3.3%[46.1 µM] | 1.4% | · | 3.9% | ·
Cc1ccc(S(=O)(=O)N(CC(=O)NCc2cccnc2)C2CCCCC2)cc1 | · | -13.1% | -13.8% | ? | 0.2% | 1.3% | 12.1% | ·
CCOC(=O)/C=C/C(=O)N1CCc2ccccc21 | 0.1% | -1.8% | ? | -7.2% | -8.3% | -60.2% | 14.9% | 1.6%
CC(=O)c1c(-c2ccccc2)c2ccccc2[nH]c1=O | · | -13.5% | 0.5% | -2.7%[46.1 µM] | -0.4% | -0.8% | -13.5% | ·
O=c1oc2cccnc2n1CCS(=O)(=O)c1ccc(F)cc1 | · | -5.8% | -19.4% | -14.6%[46.1 µM] | -3.5% | 12.2% | 6.4% | ·
Cc1ccc(CNC(=O)CSc2ccc(-c3sc(-c4ccccc4)nc3C)nn2)cc1 | 4.4% | 17.6%[46.1 µM] | · | · | · | · | -2.1% | 3.2%
O=C(c1cccc(OC2CCN(C3CCCC3)CC2)c1)N1CCCCCCC1 | · | 5.8% | 0.5% | -21.8% | 0.4% | 1.6% | -14.2% | ·
CCC(C)(C)NC(=O)/C=C/c1ccccc1[N+](=O)[O-] | · | 21.9% | 1.8% | 0.8%[46.1 µM] | -3.9% | · | 21.4% | ·
COc1ccc(C(=O)NNC(=O)OC(C)(C)C)cc1 | · | · | 0.0% | · | 0.4% | 9.3% | -0.6% | ·
CCOC(=O)c1sc(NC(=O)c2ccco2)c(C#N)c1C | -15.2% | 0.2% | -8.8% | -2.1% | -0.7% | -7.1% | -0.5% | -4.0%
CC(C)(c1ccccc1)c1ccc(OCC(O)CNC2CCN(Cc3ccccc3)CC2)cc1 (stereo not given) | · | · | 69.4% | ? | -12.2% | · | ? | ·
CCOc1ccccc1OCC(=O)Nc1c(C)n(C)n(-c2ccccc2)c1=O | · | 9.7% | -2.0% | 10.5% | -0.2% | · | -4.4% | ·
Cc1cccc(C)c1NC(=S)NC(=O)c1ccccc1F | 1.0% | -2.1% | 37.5% | ? | 13.8% | ? | -18.2% | -3.9%
Cc1cc(C(=O)OCC(=O)Nc2cccc(S(=O)(=O)N(C)C)c2)c2ccccc2n1 | · | 0.7% | 0.3% | ? | 4.0% | · | ? | ·

By substructure: the entries above containing four or more nitrogen atoms
SMILES | Cruzain noTriton | LASV entry inh | RE007 growth inh | Marburg entry inh | SARS PLP yeast | NS1 inh | 2A StopGo | Cruzain inh Det
CC(C)(C)NC(=O)Cn1cnc2cc([N+](=O)[O-])ccc2c1=O | · | 14.2% | 7.4% | -15.5%[46.1 µM] | 0.2% | · | -18.8% | ·
Cc1ccc(CNC(=O)CSc2ccc(-c3sc(-c4ccccc4)nc3C)nn2)cc1 | 4.4% | 17.6%[46.1 µM] | · | · | · | · | -2.1% | 3.2%

Next structures
SMILES | Cruzain noTriton | LASV entry inh | RE007 growth inh | Marburg entry inh | SARS PLP yeast | NS1 inh | 2A StopGo | Cruzain inh Det
C=CCCC1(C2=CCCCC2)C(=O)NC(=O)NC1=O | · | 0.1%[46.1 µM] | 2.0% | 5.7% | · | · | -24.5% | ·
O=C(NC1CCN(C(=O)Nc2ccccc2)CC1)C1CCCCC1 | -3.5% | 4.6% | -7.4% | ? | 7.4% | -2.2% | -23.5% | 0.7%
CCN(CC)S(=O)(=O)c1cc(C)ccc1NC(=S)Nc1cccnc1 | · | ? | 1.5% | 11.2µM* | -0.3% | · | -8.5% | ·
O=C(NCCCn1ccnc1)C(=O)NC1CCCCC1 | · | · | 4.1% | -2.9%[46.1 µM] | 12.5% | 0.7% | 9.5% | ·
COc1ccc(N(C)S(=O)(=O)c2ccc3c(c2)NC(=O)CO3)c(OC)c1 | · | · | 3.2% | · | 2.2% | 4.4% | -6.7% | ·
O=C(Cn1cncn1)c1ccccc1 | · | · | -4.8% | · | 0.2% | 5.1% | -14.2% | ·
C[C@@H](NC(=O)[C@@H]1Cc2ccccc2CN1)C(=O)Nc1ccc2c(c1)OCO2 | · | · | 5.4% | · | -7.1% | 27.3% | 9.7% | ·
CC1CCc2c(sc3nc(-c4cc5ccccc5oc4=O)nc(Cl)c23)C1 (stereo not given) | -17.4% | 16.1%[46.1 µM] | · | 22.9%[46.1 µM] | · | · | -2.9% | 3.8%
O=C1NC(=O)N(Cc2ccco2)C(=O)/C1=C/C=C/c1ccco1 | · | ? | 10.0% | ? | -0.6% | 14.3% | ? | ·
Cc1cccc(N(C(=O)Nc2ccc(Cl)cc2)C2=NCC(C)S2)n1 (stereo not given) | · | -13.1% | -11.6% | 1.3%[46.1 µM] | -0.9% | -0.4% | 35.1%[activator] | ·
Cc1cccc(CC(=O)N2CCC(N3CCC(C(=O)N4CCOCC4)CC3)CC2)c1 | · | ? | 14.0% | -4.3% | 1.5% | 2.4% | -2.6% | ·
CC(C)CCNC(=O)CN(C(=O)CCC(=O)Nc1nccs1)c1ccc2c(c1)OCCO2 | · | 9.1%[46.1 µM] | 0.0% | 7.4%[46.1 µM] | 1.1% | 6.2% | -17.8% | ·
COc1ccc(NC(=O)CN(C)C(=O)CCCc2nc3ccccc3c(=O)[nH]2)cc1 | · | 0.5% | 2.3% | -11.9% | -1.5% | · | -4.2% | ·
CCCCn1c(N)c(N(CC(C)C)C(=O)c2ccc(C)c(S(=O)(=O)N3CCCCC3)c2)c(=O)[nH]c1=O | · | -20.0% | 4.5% | 0.6%[46.1 µM] | -7.2% | · | 9.7% | ·
O=C(NCc1ccc(Cl)cc1)C1CCN(S(=O)(=O)c2cc([N+](=O)[O-])ccc2Cl)CC1 | 1.0% | · | 3.6% | · | 11.7% | -7.4% | -23.3% | -2.5%
OC1(c2ccccc2)c2ccccc2-c2ncccc21 (stereo not given) | · | 13.2% | -0.8% | -1.4%[46.1 µM] | 0.5% | · | 9.2% | ·
CCc1ccc(C(=O)OCC(=O)Nc2cccc(S(=O)(=O)NC3=NCCCCC3)c2)cc1 | 16.7% | 1.0% | -1.6% | ? | 2.1% | -22.0% | 0.0% | -3.1%
Cc1cccc(NC(=O)CN2C(=O)NC(Cc3ccccc3)C2=O)c1 (stereo not given) | 1.0% | -4.2% | 8.6% | 6.3% | -7.6% | -0.6% | ? | 4.7%
Cc1oc(-c2ccc(Cl)cc2)nc1CS(=O)CC(=O)NC1CCCC1 (stereo not given) | · | 9.1%[46.1 µM] | -12.5% | 0.8%[46.1 µM] | · | ? | 14.0% | ·
COc1ccc(Br)cc1CN1CCN(C(=O)Cc2ccccc2)CC1 | 3.1% | 4.3% | 20.0% | 0.0% | 6.8% | -9.7% | 0.0% | 2.0%
CCOC(=O)c1c(C)[nH]c(C)c1S(=O)(=O)N1CCC(C(=O)NCc2cccc(OC)c2)CC1 | -6.6% | 23.5%[46.1 µM] | · | · | · | · | 6.2% | 1.9%
COc1ccc(-n2c(SCC(=O)Nc3nccs3)nnc2-c2ccccc2)cc1 | -2.0% | ? | -14.5% | -24.9% | 2.7% | 7.3% | ? | 4.6%
O=c1cc(-c2ccccc2[N+](=O)[O-])oc2ccccc12 | · | ? | 3.5% | ? | -1.2% | -5.7% | 26.7% | ·
CCSc1nc2sc3c(c2c(=O)n1-c1ccccc1)CCN(C)C3 | · | · | -13.5% | · | -1.9% | -7.1% | -8.1% | ·
O=C(N/C(=C\c1ccccc1)C(=O)N1CCOCC1)c1ccccc1Br | · | -19.5%[46.1 µM] | 2.8% | 19.7%[46.1 µM] | 0.6% | -4.0% | -13.0% | ·
CN1CCc2c([nH]c3ccccc23)C1 | · | · | -8.6% | · | -1.0% | -2.9% | -22.7% | ·
Cc1ccc(/C=N/NC(=O)c2nnn(-c3nonc3N)c2C(C)C)s1 | · | · | -7.4% | · | -0.9% | -3.4% | 8.7% | ·
Cc1ccc(C(=O)OCC(=O)NC(=O)c2ccc(C(C)(C)C)cc2)c(O)c1 | · | 3.0% | -11.2% | -8.7% | -11.1% | · | -14.8% | ·
CCOc1ccccc1NC(=O)Nc1ccc(OC)nc1 | · | 7.8% | 4.3% | 10.2% | -2.2% | -36.3% | -3.8% | ·

Screening results as filed in PubChem BioAssay.

Compounds as they come; any-hit rate near 4.6%.
